VDR inhibitor – Inhibitors of the vitamin D receptor (VDR): qHTS; VDR-SRC2-3 peptide fluorescence polarization, 2 h; Potency, µM, for inactives: max response, negative = inhibition, actives largely listed as inhibitors; 400,000 tested, 0.93% active; active = well fitted inhibition curve with a large enough effect; inconclusive = small, poorly fitted or top-dose-only effect, or another doubt; inactive = no such curve, though single readings can be large or run the other way; note: series mostly up to about 120 µM
Target sequence (P11473 whole entry, looked up): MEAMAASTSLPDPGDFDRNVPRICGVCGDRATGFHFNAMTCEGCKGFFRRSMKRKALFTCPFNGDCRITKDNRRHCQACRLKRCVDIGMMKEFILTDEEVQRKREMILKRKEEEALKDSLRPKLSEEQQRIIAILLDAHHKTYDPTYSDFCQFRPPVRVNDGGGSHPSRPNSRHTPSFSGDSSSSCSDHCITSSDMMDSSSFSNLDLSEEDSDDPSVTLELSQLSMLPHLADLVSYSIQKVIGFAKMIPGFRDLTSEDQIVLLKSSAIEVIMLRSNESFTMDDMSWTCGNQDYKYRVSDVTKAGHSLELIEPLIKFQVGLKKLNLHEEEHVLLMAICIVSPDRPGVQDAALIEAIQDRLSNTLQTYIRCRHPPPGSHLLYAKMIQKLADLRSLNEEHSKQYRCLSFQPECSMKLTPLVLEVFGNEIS
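Compounds are added to VDR with labelled SRC2-3 coactivator peptide and held 2 h at room temperature. Inhibition of the VDR–peptide interaction is then read as a change in fluorescence polarization.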
The depositor's hits bear a star; u = inconclusive; & = joins results of further samples; [ ] = another dose, or the depositor's remark. % is set by controls: 0 for no effect and ±100 for the full control effect; potency is the fitted concentration of half-maximal effect.

no.	Structure	VDR inhibitor
1	O=[N+]([O-])c1ccc(COc2cccc(CNc3ccc(Br)cc3)c2)cc1	-5%
2	CCOC(=O)N1CCC(NC(=O)CS(=O)(=O)Cc2nc(-c3cccc(OC)c3)oc2C)CC1	-2%
3	COc1c(NC(C)=O)c2c(c([N+](=O)[O-])c1OC)C(=O)OC2	-4%
4	COc1ccc(CCN(C)C(=O)CN2C(=O)c3ccccc3S2(=O)=O)cc1OC	u
5	COc1cc(-c2n[nH]c(=S)n2-c2cccc(C(F)(F)F)c2)cc(OC)c1OC	-16%
6	CS(=O)(=O)N(CC(=O)N1CCc2ccccc2C1)Cc1ccc(Cl)cc1	40%[activator]
7	CCN1CCN(/C=N/c2nc3c(s2)CCCC3)CC1	0%
8	Cc1nc2ccc(NC(=O)N3CCSCC3)cc2s1	-9%
9	Cc1ccccc1NC(=O)c1nc(S(C)(=O)=O)ncc1N(Cc1ccco1)Cc1sccc1C	-4%
10	CCN1C(=O)CSc2ccc(C(=O)NCc3ccccc3OC)cc21	22%
11	CCN(CC(=O)Nc1ccc(OC)cc1)C(=O)c1ccc2c(c1)NC(=O)CS2	-15%
12	CC(C)c1nnc(NC(=O)C2CCCN(C(=O)Nc3ccc(F)cc3)C2)s1 (configuration not stated)	26%
13	O=C(NCCN1CCCCC1)Nc1cccc(Cl)c1Cl	-1%
14	CC1CCN(C(=O)c2ccc(NC(=O)C3CCCO3)cc2)CC1 (configuration not stated)	4%
15	Clc1ccccc1C1=Nn2c(nnc2-c2ccco2)SC1	4%
16	CCN1C(=O)C(O)(CC(=O)c2c(C)coc2C)c2ccccc21 (configuration not stated)	-10%
17	CCOC(=O)CC(=O)Nc1ccc(C(=O)OCC)cc1	1%
18	CC(OC(=O)C1CC2CCCC(C1)C2=O)C(=O)Nc1cccc([N+](=O)[O-])c1 (configuration not stated)	-5%
19	COc1cccc(CN2CC(C(=O)N3CCCO3)CCC2=O)c1 (configuration not stated)	18%
20	CCC(=O)NC(=S)Nc1ccc(NC(=O)c2ccco2)cc1	15%
21	CC(C)(C)OC(=O)N1CCC(c2c(C(=O)N3CCOCC3)cnn2-c2cccc(F)c2)CC1	-2%
22	N#Cc1ccc(C(=O)NNC(=O)c2ccncc2)cc1	10%
23	Cc1ccc(O)c(NC(=O)c2noc3c2CCCC3)c1	-4%
24	CC1=C(C(=O)OC2CCCCCC2)C(c2c(F)cccc2Cl)CC(=O)N1 (configuration not stated)	-14%
25	O=C(NCc1ccccc1)c1nc(-c2ccc(Cl)cc2)n2c1CCCCC2	-4%
26	Cc1cc(OCCOc2cccc3cccnc23)cc(C)c1Cl	-12%
27	COc1cccc(NC(=O)COC(=O)c2ccccc2SCC(=O)N2CCCC2)c1	0%
28	COc1ccc(Cl)cc1C(=O)N1CCN(c2ccccn2)CC1	11%
29	Cc1nc2sc(C(c3ccccc3)N3CCN(C)CC3)c(O)n2n1 (configuration not stated)	-18%
30	COc1ccc(-c2cc(C(=O)Nc3cc(C(F)(F)F)ccc3Cl)no2)cc1	6%
31	Cc1ccc(N=C2NC(=O)CS2)cc1	-10%
32	O=S(=O)(Nc1cccnc1)c1ccc(Br)c2ccccc12	-3%
33	Cc1ccc(C)c(C2=CSC3=NS(=O)(=O)CCN23)c1	-8%
34	CC(C)COP(=O)(c1ccc(N(C)C)cc1)C(O)c1ccccc1F (configuration not stated)	-13%
35	Cc1cccc(C)c1NC(=O)C1c2cccc[n+]2CC(=O)N1Cc1ccc2c(c1)OCO2 (configuration not stated)	13%
36	c1ccc(CCn2nnnc2C(c2cccs2)N2CCOCC2)cc1 (configuration not stated)	1%
37	O=C(NNC(=O)c1ccncc1)Nc1cc(Cl)ccc1Cl	-4%
38	CCOc1ccc(N(CC(=O)NC2CCCC2)C(=O)CCC(=O)Nc2nccs2)cc1	8%
39	CN(C)CC/C=C1\c2cc(Cl)ccc2Sc2cc(F)c(F)cc21	-10%
40	Cc1cc2cc(CNC(=O)c3ccc(S(=O)(=O)N4CCCC4)cc3)ccc2n1C	-14%
41	COc1cc(NC(=O)Cn2nnc(-c3ccc(C(F)(F)F)cc3)n2)c(C(=O)O)cc1OC	-3%
42	COc1ccc2c(c1)c1nc(SCC(C)C)n(CCO)c(=O)c1n2C	-15%
43	COc1ccc(CNCc2ccccc2[N+](=O)[O-])cc1OC	-15%
44	O=C(CNS(=O)(=O)c1ccccc1)N1CCN(C(=O)c2ccco2)CC1	-21%
45	CC(Sc1nnnn1C)C(=O)Nc1ccccc1-c1ccccc1 (configuration not stated)	-13%
46	CCCCOc1ccc(-c2n[nH]c(=S)n2Cc2ccccc2)cc1	3%
47	CCOC(=O)c1cn(Cc2ccc(C)cc2)nn1	3%
48	O=C(Nc1cccc(C(F)(F)F)c1)C1CCN(S(=O)(=O)c2cccnc2)CC1	3%
49	N#Cc1c(SCC(=O)N2CCOCC2)nsc1SCC(=O)N1CCOCC1	-2%
50	O=C(NC(=S)Nc1ccc(NC(=O)c2ccco2)cc1)c1ccccc1	-6%

Other entries:
no.	Structure	VDR inhibitor
51	COCCCNS(=O)(=O)c1cccc(S(=O)(=O)c2cccc(S(=O)(=O)NCCCOC)c2)c1	9%
52	CN(CC(=O)Nc1ccc(Cl)cc1)c1ccc(S(=O)(=O)N2CCCCC2)cc1[N+](=O)[O-]	-20%
53	N/C(=N\S(=O)(=O)c1cccs1)c1ccccc1	1%
54	CC(C)C(=O)NN(C(=O)C(C)C)c1nc2ccccc2s1	16%
55	CCOC(=O)C1=C(C)N=c2s/c(=C\c3ccc(OCC(=O)O)cc3)c(=O)n2C1c1ccccc1OC (configuration not stated)	u
56	Cc1ccc2c(c1)nnn2C1CCN(C(=O)C23CC4CC(CC(C4)C2)C3)CC1	-1%
57	CCN(Cc1ccccc1)C(=O)c1c(C)oc2ncn(C)c(=O)c12	6%
58	Cc1nn(C(=O)c2c([N+](=O)[O-])cnn2C)c(C)c1Cl	-12%
59	COc1cc(OC)c(NC(=O)c2nn(-c3ccc(C)cc3)c(=O)c3c2c2ccccc2n3C)cc1Cl	1%
60	CCCC(=O)Nc1nc(C)c(-c2csc(Nc3ccccc3OC)n2)s1	-8%

In the list so far, 2 contain bromine:
no.	Structure	VDR inhibitor
1	O=[N+]([O-])c1ccc(COc2cccc(CNc3ccc(Br)cc3)c2)cc1	-5%
32	O=S(=O)(Nc1cccnc1)c1ccc(Br)c2ccccc12	-3%

Later entries
no.	Structure	VDR inhibitor
61	Clc1ccc(Nc2c3c(nc4ncnn24)CCC3)cc1	-9%
62	Cc1cc(C)n(-c2nc3c(c(=O)[nH]c(=O)n3C)n2C(C)C)n1	3%
63	COc1ccc(NC(=O)Cn2c(=O)n(CCCC(=O)NCc3ccccc3Cl)c(=O)c3ccccc32)c(OC)c1	-9%
64	Cc1cc(C)cc(-n2cc(C(=O)O)c(=O)cc2C)c1	2%
65	COC(=O)Cn1c(SCCOc2ccccc2Cl)nc2ccccc21	-2%
66	COc1ccc(Cl)cc1NC(=O)Cc1ccc(NC(=O)N2CCCCc3ccccc32)cc1	-5%
67	COc1ccc2c3c(cccc13)OCC2=O	-4%
68	CCOC(=O)c1c(C=O)c2ccccc2n1CC	5%
69	COc1cccc(NC(=O)c2cn(C)c(=O)c3cc(OC)c(OC)cc23)c1	-24%
70	O=C(c1cc2cc(Br)ccc2oc1=O)N1CCCC1	4%
71	Cc1cccn2c(CN3CCCN(C=O)CC3)c(C(=O)N(C)CCc3ccccc3)nc12	-17%
72	Cc1ccc(CNC(=O)C2CC3Cn4c(nc5cc6ccccc6cc54)C3N2C)o1 (configuration not stated)	-20%
73	CC1Cc2ccccc2N1C(=O)C1CC(=O)N(c2ccccc2)C1 (configuration not stated)	-4%
74	CCCNC(=O)c1ccc2c(c1)CCN2S(C)(=O)=O	-5%
75	O=C(NCc1ccccn1)Nc1ccc(Cl)cc1Cl	3%
76	Cc1[nH]c(=S)c(C#N)c(C)c1Cc1ccc(Cl)cc1Cl	-26%
77	O=C(N/N=C/c1cc(Cl)cc(Cl)c1O)c1ccncc1	-19%
78	Cc1ccc2oc(=O)c(/C=C(\O)CC(C)C)nc2c1	-9%
79	Cc1c(Cl)cccc1NC(=O)C(=O)NNC(=O)c1ccccc1F	11%
80	Cc1ccc(-c2n[nH]c(=S)n2/N=C/c2ccncc2)cc1	0%
81	O=C(CCC(=O)N1CCCCCC1)Nc1ccc([N+](=O)[O-])cc1	-6%
82	CCOC(=S)NC(=O)c1sc2ccccc2c1Cl	-13%
83	CC1CCc2sc(C(=O)OCC(=O)NCc3ccc(F)cc3)cc2C1 (configuration not stated)	11%
84	COc1ccc(-c2sc3cc4c(cc3c2C#CC2(O)CCCCC2)OCO4)cc1	-13%
85	CC(C)(C)c1ccc(/C=C2\SC(=O)N=C2N)cc1	8%
86	CCOc1ccc(N(CC(=O)NCCSCc2ccccc2)S(=O)(=O)c2ccccc2)cc1	10%
87	C=CCSC[C@@H]1Nc2cc(Cl)c(S(N)(=O)=O)cc2S(=O)(=O)N1	-6%
88	Cc1cc(C)cc(NS(=O)(=O)c2cnc(Cl)c(Cl)c2)c1	7%
89	O=Cc1ccc(B(O)O)cc1	-16%
90	Cc1ccc(CSc2nnc(-c3ccncc3)n2C)cc1	9%
91	CCN(CC)C(=O)c1c[nH]c2ccc(S(=O)(=O)Nc3cc(C)cc(C)c3)cc2c1=O	-3%
92	CC(C)C(c1nnnn1Cc1ccc(F)cc1)N1CCN(C2CCCC2)CC1 (configuration not stated)	-8%
93	COc1ccc(OCCSc2nnc(-c3ccccc3)n2N)cc1	4%
94	COCCNC(=O)CSc1nnc(NC(=O)C2CC(=O)N(c3ccccc3OC)C2)s1 (configuration not stated)	-14%
95	COc1ccc(C(=O)NCC(=O)OCc2csc(-c3ccccc3)n2)cc1	-2%
96	O=S(=O)(NCc1cccs1)c1cccc2cccnc12	8%
97	Cc1c(Cl)cccc1NC(=O)Cn1c(-c2ccc(F)cc2)noc1=O	-3%
98	CCOC(=O)c1cc(-c2ccc(F)cc2)n(CCC(=O)Nc2cc(OC)cc(OC)c2)c1C	17%
99	Cc1cccc(C(=O)O/N=C/c2ccc(Br)cc2)c1	1%
100	CN1CCCN(C(=O)CNC(=O)c2ccccc2F)CC1	7%

An excerpt from above in order of their number in VDR inhibitor, descending:
cpd | SMILES | VDR inhibitor
98 | CCOC(=O)c1cc(-c2ccc(F)cc2)n(CCC(=O)Nc2cc(OC)cc(OC)c2)c1C | 17%
100 | CN1CCCN(C(=O)CNC(=O)c2ccccc2F)CC1 | 7%
91 | CCN(CC)C(=O)c1c[nH]c2ccc(S(=O)(=O)Nc3cc(C)cc(C)c3)cc2c1=O | -3%
92 | CC(C)C(c1nnnn1Cc1ccc(F)cc1)N1CCN(C2CCCC2)CC1 (configuration not stated) | -8%
94 | COCCNC(=O)CSc1nnc(NC(=O)C2CC(=O)N(c3ccccc3OC)C2)s1 (configuration not stated) | -14%

Further entries:
no.	Structure	VDR inhibitor
101	Cc1ccc(S(=O)(=O)N2CC(O)CC2C(=O)NCc2ccc3c(c2)OCO3)cc1 (configuration not stated)	-1%
102	CSc1ccc(C(=O)C2CCCN(S(=O)(=O)N(C)C)C2)cc1 (configuration not stated)	-12%
103	CC(C)(C)C1CCC(=NNC(=O)c2cc3c(s2)CCCC3)CC1 (configuration not stated)	-17%
104	C[C@H](NC(=O)c1ccco1)C(=O)NC1CCCCCC1	-16%
105	CCN(c1ccc(Cl)cc1)S(=O)(=O)c1nnc(NC(=O)C(C)C)s1	-2%&14%
106	COc1ccc(NC2C=CS(=O)(=O)C2)c(OC)c1 (configuration not stated)	5%
107	Cc1cc([N+](=O)[O-])ccc1NC(=O)CCC(=O)N1CCCCC1	18%
108	C=C(C)CSc1nc2sc3c(c2c(=O)n1-c1ccccc1)CCN(C)C3	-25%
109	CC(=O)c1ccc(NC(=S)NC(NC(=O)c2ccco2)C(Cl)(Cl)Cl)cc1 (configuration not stated)	10%
110	CN(CCc1ccccc1)C(=O)c1cccc(NC(=O)Cc2cccc(NC(=O)C3CCCN(C(=O)C4CCCCC4)C3)c2)c1 (configuration not stated)	6%
111	CCc1ccc(CNC(=O)c2ccc(-c3nc(CSc4ccc(C)cc4)c(C)o3)cc2)cc1	7%
112	O=C(CN(Cc1ccco1)C(=O)c1ccccc1F)Nc1ccccc1C(F)(F)F	-6%
113	O=C(CN1C(=O)COc2ccc(S(=O)(=O)N3CCOCC3)cc21)NCc1ccc(F)cc1	12%
114	Cc1ccc(C(=O)NC(Cc2c[nH]c3ccccc23)C(=O)O)cc1 (configuration not stated)	-11%
115	Nc1ccc(C(=O)Nc2ccc(OC(F)(F)C(F)F)c(NC(=O)c3ccc(N)cc3)c2)cc1	10%
116	COC(C(=O)Nc1ccnn1C1CCN(Cc2cccc(C)n2)CC1)c1ccccc1 (configuration not stated)	20%
117	CC(C)C(c1nnnn1C(C)(C)C)N1CCN(Cc2cccnc2)CC1 (configuration not stated)	-2%
118	OC1C(O)C(O)C(O)C(O)C1O (configuration not stated)	-8%&-14%&6%&8%
119	CCOc1cccc(C(=O)Nc2cnn(Cc3ccccc3)c2)c1	1%
120	CC(=O)C1=C(C)NC(SCc2ccc(C#N)cc2)=C(C#N)C1c1ccco1 (configuration not stated)	-10%
121	Cc1ccc(-c2noc(C3CCCN(C(=O)c4ccccc4Br)C3)n2)o1 (configuration not stated)	5%
122	COc1ccc(C2C(C(N)=O)=C(C)Nc3nc(-c4ccccc4)nn32)cc1OC (configuration not stated)	6%

Compounds from the list above that have a COOH group (4):
no.	Structure	VDR inhibitor
41	COc1cc(NC(=O)Cn2nnc(-c3ccc(C(F)(F)F)cc3)n2)c(C(=O)O)cc1OC	-3%
55	CCOC(=O)C1=C(C)N=c2s/c(=C\c3ccc(OCC(=O)O)cc3)c(=O)n2C1c1ccccc1OC (configuration not stated)	u
64	Cc1cc(C)cc(-n2cc(C(=O)O)c(=O)cc2C)c1	2%
114	Cc1ccc(C(=O)NC(Cc2c[nH]c3ccccc23)C(=O)O)cc1 (configuration not stated)	-11%

Only part of the results is shown; the hit share may differ from the screen's.
